ugtP null kill: growth inhibition of S. aureus ugtP deletion strain; S. aureus RN4220 ugtP deletion, OD600 growth, 16 h; some inactives read as strong as hits; growth inhibition, % (test concentration not listed); actives 0.54% (n = 330,000); AID 1259309;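 active = z-score under -3 and OD600 up to 0.15 on both plates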;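 also: plate controls were untreated wells for no effect and antibiotic for full effect; wells of about 80 µL received 100 nL stock; the first replicate is given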
Bead autofluor: flagged as autofluorescent in microsphere protease counterscreen; fluorescence intensity (concentration not given with the values); AID 624483; compound autofluorescence counterscreen, microsphere flow cytometry; active compounds read high; actives 3.1% (n = 360,000);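 active = at least 3 SD above the mean of all compounds, about 16000 in these data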;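 also: 100 nL of 1 mM stock went into each well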
Mtb hypoxia inh: inhibitors of hypoxia-regulated fluorescent reporter in Mycobacterium tuberculosis | M. tuberculosis hypoxia-regulated fluorescent reporter, fluorescence | fluorescence inhibition, % (test concentration not listed) | actives 0.1% (n = 300,000) | AID 1159583;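 active = 35 to 45% if threefold the growth effect, above 45% if 1.5-fold the growth effect; inactive = the rest, general growth blockers included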;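 also: wells of about 50 µL received 100 nL stock; 0% = vehicle wells and 100% = reference inhibitor wells; whole bacteria with a GFP reporter of the hypoxia response; strong numbers were not always called active; many hits fall short of the cut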
PrP UTR inh: suppresses PrP 5' UTR mRNA reporter expression; cell-based PrP 5' UTR mRNA reporter, plate reader; AID 488862; actives 0.35% (n = 340,000); inhibition, % (concentration not given with the values);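 active = every replicate at 50% or more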;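 also: 0 = median of the neutral control wells; tested in H4 reporter cells; numbers are from one replicate; inactives centre near -14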
Sa RN4220 lethal: S. aureus RN4220 growth inhibition | OD600, 16 h | inhibition, % (concentration not given with the values) | actives 0.33% (n = 330,000) | AID 1259311;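 active = z-score of -3 or lower and OD600 up to 0.18 on both plates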;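 also: plate controls were untreated cells for no effect and reference antibiotic for full effect; stock transfer was 100 nL into about 80 µL; one replicate is shown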
BJeLR viability: kills HRASV12-expressing BJeLR cells; inhibition, % (concentration not given with the values); actives 0.17% (n = 300,000); AID 1554; BJeLR (HRASV12) viability, CellTiter-Glo ATP luminescence, 48 h; reference of the scale not given here;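 active = replicate mean above 50%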;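 also: 50 nL library stock added to about 25 µL; numbers are from one replicate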
Mtb hypoxia inh growth: also measured in Mtb hypoxia inh; calls as there; growth inhibition, %; measured here: M. tuberculosis growth (absorbance);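 0% = vehicle and 100% = reference antibiotic; read after six days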
Active calls of the source: *; x = no result given; & = joins results of further samples.

The first 3 entries, ahead of the listing:
SMILES	ugtP null kill	Bead autofluor	Mtb hypoxia inh	Mtb hypoxia inh growth	PrP UTR inh	Sa RN4220 lethal	BJeLR viability
O=C1CC(C(=O)N2CCC(N3CCC(C(=O)NC4CC4)CC3)CC2)c2ccccc21 (configuration not stated)	-6.6	3391	6.6	-1.7	-21.8	6.4	2.6
CCC1(c2ccccc2)NC(=O)N(C)C1=O (configuration not stated)	0.8	4851	-0.7	-2.0	2.0	4.0	x
CCCCNC(=O)c1ccccc1NC(=O)CN(c1ccccc1)S(=O)(=O)N(C)C	7.2	2261	-0.6	6.2	-9.5	-1.4	-7.7

The listing, from the start:
SMILES	ugtP null kill	Bead autofluor	Mtb hypoxia inh	Mtb hypoxia inh growth	PrP UTR inh	Sa RN4220 lethal	BJeLR viability
O=C1CC(C(=O)N2CCC(N3CCC(C(=O)NC4CC4)CC3)CC2)c2ccccc21 (configuration not stated)	-6.6	3391	6.6	-1.7	-21.8	6.4	2.6
CCC1(c2ccccc2)NC(=O)N(C)C1=O (configuration not stated)	0.8	4851	-0.7	-2.0	2.0	4.0	x
CCCCNC(=O)c1ccccc1NC(=O)CN(c1ccccc1)S(=O)(=O)N(C)C	7.2	2261	-0.6	6.2	-9.5	-1.4	-7.7
OC(CNc1nc(-c2cccnc2)nc2ccccc12)c1ccccc1 (configuration not stated)	-5.0	6787	-7.6	4.6	-2.3	3.6	-4.3
COc1cccc(OC)c1-c1nnc(-c2cn(C)c3ccccc23)o1	-9.1	3737	0.4	6.5	9.3	1.5	-13.1
CCc1nn(C(C)C(=O)N2CC(C)CC(C)C2)c(=O)c2cc3occc3n12 (configuration not stated)	-8.8	4943	-0.7	1.0	-28.4	5.6	1.3
CC(NC(=O)CNC(=O)C1CCCCC1)c1ccc(S(N)(=O)=O)cc1 (configuration not stated)	1.4	3762	-8.7	9.1	-6.0	-0.6	-10.3
CN(CC(=O)Nc1cccc(Cl)c1)C1=NS(=O)(=O)c2ccccc21	-1.6	3637	-8.8	12.6	-5.9	2.6	x
CCN(CC)S(=O)(=O)c1cccc(C(=O)NC2CCCCC2)c1	7.5	21448*	2.9	-5.1	-18.5	1.6	-14.2
COc1ccc(OC)c2[nH]c(=O)c(CCNC(=O)c3ccc(S(=O)(=O)N4CCCCC4)cc3)cc12	4.3	2637	x	x	-21.6	-0.8	-7.4
O=C(NCc1cccs1)c1ccc2c(c1)ncn2C1CCCC1	11.7	5218	6.0	13.6	-14.7	2.3	-0.1
COc1ccc2[nH]c(C(=O)N3CCN(c4ccccc4F)CC3)c(C)c2c1	-6.8	3748	-5.8	4.6	-12.5	5.0	5.9
C=CCn1c(SCC(=O)Nc2cccnc2Cl)nnc1-c1ccc(Cl)cc1	4.7	2059	-6.3	-8.1	-9.6	1.0	13.4
Cc1cccc(NC(=S)N2CCN(S(C)(=O)=O)CC2)c1	-2.0	5536	-2.2	1.0	-8.5	-0.5	-6.7
COc1ccc(CCNC(=O)c2n[nH]c(=O)c3ccccc23)cc1	6.0	4434	x	x	-23.4	2.1	-7.0
COc1cc(NS(=O)(=O)c2c(C)oc3c(F)c(F)c(F)c(F)c23)cc(OC)c1OC	4.1	5277	-5.0	1.0	-3.3	5.5	7.6
NS(=O)(=O)c1cccc(NC(=O)COC(=O)Cc2n[nH]c(=O)c3ccccc23)c1	4.4	x	-0.4	-1.7	-18.8	6.3	x
CC(=O)Oc1ccc(C(=O)OCC(=O)c2c(N)n(C)c(=O)n(C)c2=O)cc1OC(C)=O	-2.4	4390	8.3	3.7	-11.3	3.1	6.3
CN(CC(=O)N1CCN(c2ccccn2)CC1)S(=O)(=O)c1ccccc1	0.1	2819	x	x	-15.5	3.0	-1.2
O=C(CN1C(=O)C2CCCCN2C(=O)c2ccccc21)Nc1ccc(F)cc1 (configuration not stated)	12.7	4209	14.2	-4.6	-23.0	2.5	-4.5
CCOc1ncccc1C(=O)Nc1ccc(C)cn1	0.7	6566	4.8	9.2	-17.7	5.4	-5.2
CN(C)C(=O)CSc1ccc(S(=O)(=O)N2CCCC2)cn1	8.6	4800	10.8	2.9	-14.3	3.8	x
CC(=O)Nc1ccc(C(=O)OCC(=O)NC(=O)NC(C)(C)C)cc1	10.0	3433	x	x	-3.8	8.0	1.7
CC1=C/C(=N\Nc2ccccc2[N+](=O)[O-])CC(C)(C)C1	x	2503	x	x	-6.1	x	8.1
Cc1nn(-c2ccccc2)c(C)c1C=NN1CCN(c2ccccn2)CC1	6.5	x	-0.9	9.5	x	1.9	x

Some of the entries above, reformatted.
Each structure is followed by: ugtP null kill | Bead autofluor | Mtb hypoxia inh | Mtb hypoxia inh growth | PrP UTR inh | Sa RN4220 lethal | BJeLR viability
> C=CCn1c(SCC(=O)Nc2cccnc2Cl)nnc1-c1ccc(Cl)cc1
 : 4.7 | 2059 | -6.3 | -8.1 | -9.6 | 1.0 | 13.4
> CC(=O)Nc1ccc(C(=O)OCC(=O)NC(=O)NC(C)(C)C)cc1
 : 10.0 | 3433 | x | x | -3.8 | 8.0 | 1.7
> CC1=C/C(=N\Nc2ccccc2[N+](=O)[O-])CC(C)(C)C1
 : x | 2503 | x | x | -6.1 | x | 8.1

(next part)
SMILES	ugtP null kill	Bead autofluor	Mtb hypoxia inh	Mtb hypoxia inh growth	PrP UTR inh	Sa RN4220 lethal	BJeLR viability
O=C(CN1C(=O)c2ccccc2C1=O)Nc1ccc(-c2nc3ccccc3o2)cc1	-10.0	3328	3.4	7.5	-16.0	-0.8	-1.7
Cc1ccc(COc2ccc(-c3nnco3)cc2)cc1	-0.3	3968	10.0	-0.3	-16.9	4.7	-3.5
Cc1ccc(C2=CC(=O)CC(c3ccc4c(c3)OCO4)C2)cc1 (configuration not stated)	6.5	x	6.0	7.6	x	1.4	x
CCOC(=O)c1ccc(NC(=S)N2CCC(C(N)=O)(N3CCCCC3)CC2)cc1	3.4	3260	4.8	15.0	-12.2	8.8	6.5
Cc1cc(C(=O)C[N+]2(C)CCOCC2)c(C)n1-c1ccc(Br)cc1	-3.3	4808	9.2	13.3	-20.6	-0.8	16.2
COC(=O)CNC(c1ccccc1)c1cc(C)ccc1NS(=O)(=O)c1ccc(C)cc1 (configuration not stated)	6.4	1987	-2.9	-0.3	-7.5	16.5	3.5
CNC(=O)C1C(=S)NC(N)=C(C#N)C1c1ccccc1 (configuration not stated)	-3.1	9558	-16.0	-17.9	-13.8	-7.3	-4.8
CCN(CC(=O)Nc1c(F)cccc1F)C(=O)c1ccc(=O)n(C)n1	8.4	x	2.7	11.3	1.8	3.3	x
Cc1cc2c(=O)oc(-c3ccc(F)cc3)nc2s1	6.5	3290	7.9	2.9	-27.2	1.2	-10.3
CSc1nc(S(=O)(=O)c2ccc(C)cc2)c(Cl)s1	x	7323	x	x	-15.8	x	-0.6
Cc1cc(N2CCOCC2)nc2ccc(NC(=O)CCC(=O)N3CCN(c4cccc(C(F)(F)F)c4)CC3)cc12	11.7	3155	4.6	6.1	-29.8	6.5	-7.5
Cc1noc(C)c1CSCC(=O)OCC(=O)N1CC(=O)Nc2ccccc21	0.5	3698	5.8	1.1	-27.2	-1.8	-6.6
O=C(CN(C(=O)c1csnn1)c1cccc(F)c1)NC1CCCC1	-0.6	3274	-12.3	-4.8	-13.3	-4.8	2.6
CC(C)Cn1cc(C(=O)NCc2cccs2)c2c3ccccc3n(C)c2c1=O	1.5	14097	4.9	-0.2	-2.4	6.2	8.0
Cc1ccc2c(c1)NC(=O)C(CC(=O)NCc1ccc(F)cc1)O2 (configuration not stated)	6.4	4324	x	x	-14.0	2.9	-7.8
c1ccc(-n2nnnc2-n2nnc3ccccc32)cc1	-4.4	4276	x	x	-10.1	-1.8	-9.6
Cc1ccc(S(=O)(=O)c2nc(Nc3ccccc3)sc2Cl)cc1	-3.4	2412	4.0	-4.7	-2.2	-2.8	0.2
CC(C)(C)C(=O)/C(C#N)=C/c1cccs1	2.1	4757	-1.2	-0.7	10.4	2.8	-0.3
Cc1noc(C)c1-c1nc(CS(=O)(=O)c2ccc(F)cc2)no1	12.4	3514	1.2	2.1	x	6.6	-3.0
CCOc1ccccc1NC(=O)N1CCC2(CC1)OCCO2	-1.1	9515	-3.8	2.4	-14.3	-3.1	0.6
COc1ccc(OC)c(C(=O)NC(CC(N)=O)c2ccc(N3CCC(N4CCCC4)CC3)c([N+](=O)[O-])c2)c1 (configuration not stated)	-1.7	3072	5.6	5.4	-7.9	4.2	-9.4
COc1ccc(/C=N/NC(=O)c2ccc(C)cc2)cc1CN1CCN(c2ccc(F)cc2)CC1	x	10608	x	x	-17.4	x	2.1
CC(C)CCN(C(=O)c1ccccn1)c1c(N)n(Cc2ccccc2)c(=O)[nH]c1=O	0.2	4436	2.0	5.7	-10.3	1.0	x
O=C(OC1CCOC1=O)c1ccc(Cl)c(S(=O)(=O)N2CCOCC2)c1 (configuration not stated)	4.2	5256	7.5	2.0	-3.1	1.3	x
COc1ccc(S(=O)(=O)N2CCc3ccccc32)cc1C(=O)OCc1c(C)noc1C	-8.0	3211	x	x	-6.6	-4.0	3.1

Reformatted bar-delimited: 4 of the compounds above
SMILES | ugtP null kill | Bead autofluor | Mtb hypoxia inh | Mtb hypoxia inh growth | PrP UTR inh | Sa RN4220 lethal | BJeLR viability
Cc1noc(C)c1CSCC(=O)OCC(=O)N1CC(=O)Nc2ccccc21 | 0.5 | 3698 | 5.8 | 1.1 | -27.2 | -1.8 | -6.6
O=C(CN(C(=O)c1csnn1)c1cccc(F)c1)NC1CCCC1 | -0.6 | 3274 | -12.3 | -4.8 | -13.3 | -4.8 | 2.6
CC(C)Cn1cc(C(=O)NCc2cccs2)c2c3ccccc3n(C)c2c1=O | 1.5 | 14097 | 4.9 | -0.2 | -2.4 | 6.2 | 8.0
Cc1ccc2c(c1)NC(=O)C(CC(=O)NCc1ccc(F)cc1)O2 (configuration not stated) | 6.4 | 4324 | x | x | -14.0 | 2.9 | -7.8

Next part.
SMILES	ugtP null kill	Bead autofluor	Mtb hypoxia inh	Mtb hypoxia inh growth	PrP UTR inh	Sa RN4220 lethal	BJeLR viability
OCCC1CC(O)C(O)[C@]2(CCCCO2)O1 (some centres not stated)	1.3&2.8&1.5&-1.5	x	9.3&13.6&18.2&0.6	1.7&7.7&11.4&7.2	x	2.8&3.4&4.4&5.6	x
CC(NC(=O)c1nc[nH]c1C(=O)NCC(=O)OC(C)(C)C)c1ccccc1 (configuration not stated)	-10.4	x	5.6	4.5	x	5.9	x
CCc1nnc(NC(=O)[C@@H](NC(=O)c2ccc(OC)cc2)C(C)C)s1	8.1	4198	6.8	11.2	-2.5	3.2	7.3
Cc1cc(N2CCN(S(=O)(=O)Cc3ccccc3)CC2)n2ncnc2n1	11.9	7958	3.8	-0.5	-0.8	2.0	-0.4
COC(=O)c1ccc(Sc2ccc(C)cc2)c(N)c1	1.6	24100*	0.6	5.5	-34.6	4.2	-6.7
Cc1ccc(S(=O)(=O)N2[C@@H](c3ccc(C(C)C)cc3)C(C(=O)O)=C[C@H]2C(C)(C)C)cc1	-16.4	2980	-2.7	-4.9	0.7	9.6	x
COc1ccccc1CNC(=O)CN(C)Cc1ccc(SC)cc1	9.4	4000	13.9	5.1	-18.9	0.2	-7.7
C/C(=N/NC(=O)CNC(=O)c1ccncc1)c1ccc(Cl)cc1	x	5942	x	x	-13.4	x	5.4
CC(C)CC1Nc2ncnc(N3CCN(c4ccccc4)CC3)c2N(Cc2ccccc2)C1=O (configuration not stated)	1.9	3368&6250	-10.2	10.7	-17.6	-1.3	-3.6
O=C(c1ccc2c(c1)OCCO2)C1CCN(C(=O)c2ccc(F)c(F)c2)CC1	-0.1	8034	10.0	4.5	-14.3	4.1	-5.6
COc1cc(/C=N/NC(=O)C(=O)NCC2CCCO2)cc(Cl)c1O (configuration not stated)	x	4125	x	x	-21.5	x	3.6
CCOC(=O)c1ccc2[nH]c3c(c2c1)CCCC3NC=O (configuration not stated)	5.5	3193	-1.2	-6.4	-8.9	6.1	-13.2
O=C1[C@@H](Oc2ccccc2)[C@@H](c2ccccc2)N1c1ccccc1	14.0	3415	6.1	5.7	-75.4	5.5	x
COc1cccc(NC(=O)Cn2cc(C=O)c3ccccc32)c1	2.0	4363	3.2	11.8	-7.0	-2.8	17.0
CCOc1cc(CNCC(C)C)cc(Cl)c1OCc1ccccc1	-2.7	4740	14.7	6.3	-14.6	-4.4	8.0
CCCCCn1c(=S)[nH]c2cc(C(=O)N3CCCC3)ccc2c1=O	6.2	5479	13.4	6.6	-2.3	-2.2	-5.2
NC(=O)CSC1=Nc2ccccc2C2=NC(CC(=O)NCc3cccs3)C(=O)N12 (configuration not stated)	15.0	3627	-3.4	0.9	-10.0	6.6	-2.9
